PKM2 act: PKM2 (human) enzyme activation | P14618 | purified PKM2, Kinase-Glo ATP luminescence, activation; response scale: 0% is enzyme alone, no compound | Potency, µM (series often up to 57.5 µM), for inactives: at the top dose activation, hits mostly activators | 260,000 tested, 0.34% active; further: potency means the concentration at half of the fitted maximal effect; on the % scale 0 is the no-effect control and ±100 the full control effect; nearly all actives have a fitted effect of over 55% in size
Target sequence (P14618 whole entry, looked up): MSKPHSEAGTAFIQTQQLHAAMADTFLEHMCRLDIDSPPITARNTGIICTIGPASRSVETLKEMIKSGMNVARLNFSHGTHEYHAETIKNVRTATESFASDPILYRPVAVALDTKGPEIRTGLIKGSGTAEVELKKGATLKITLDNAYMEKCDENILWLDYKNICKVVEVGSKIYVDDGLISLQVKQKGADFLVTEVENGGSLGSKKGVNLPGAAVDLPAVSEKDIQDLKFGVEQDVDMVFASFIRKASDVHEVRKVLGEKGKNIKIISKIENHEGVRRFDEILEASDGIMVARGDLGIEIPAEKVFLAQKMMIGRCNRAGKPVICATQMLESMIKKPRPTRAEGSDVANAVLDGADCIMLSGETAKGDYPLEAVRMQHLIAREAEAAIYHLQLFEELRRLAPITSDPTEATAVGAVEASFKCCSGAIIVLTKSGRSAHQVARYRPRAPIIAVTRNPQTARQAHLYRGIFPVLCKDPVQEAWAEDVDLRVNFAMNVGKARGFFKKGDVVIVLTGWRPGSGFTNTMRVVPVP
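Kinase-Glo luminescence reports ATP generated from ADP (0.1 mM) and PEP (0.5 mM) by purified hPK-M2 after 1 h at room temperature, pH 7.2 imidazole buffer; intermediate enzyme activity allows detecting inhibitors and activators.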
B2AR arrestin: agonists driving beta-arrestin recruitment to human beta2-adrenergic receptor; 330,000 tested, 0.02% active; beta-arrestin recruitment to beta2AR, cell-based reporter; P07550; Potency, µM (top dose mostly 46.1 µM), without a hit: at the top dose activation, actives largely listed as activators;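 further: potency means the concentration at half of the fitted maximal effect; 0% = DMSO controls and full agonism = EC100 isoproterenol or metaproterenol; nearly all actives have a fitted effect of over 65% in size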
Target sequence (P07550 whole entry, looked up): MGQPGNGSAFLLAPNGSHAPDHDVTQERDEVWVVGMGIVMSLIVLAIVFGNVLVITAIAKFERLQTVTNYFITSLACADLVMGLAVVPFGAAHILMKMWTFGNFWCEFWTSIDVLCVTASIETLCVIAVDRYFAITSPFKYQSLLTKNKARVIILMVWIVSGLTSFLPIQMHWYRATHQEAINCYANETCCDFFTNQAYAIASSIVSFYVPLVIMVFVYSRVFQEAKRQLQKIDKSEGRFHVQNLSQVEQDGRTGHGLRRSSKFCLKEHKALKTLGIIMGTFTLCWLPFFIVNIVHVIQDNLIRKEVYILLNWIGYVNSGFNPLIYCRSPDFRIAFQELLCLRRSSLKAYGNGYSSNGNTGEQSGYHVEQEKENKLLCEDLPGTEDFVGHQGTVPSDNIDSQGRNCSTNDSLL
USP2a block: blocks human ubiquitin-specific protease USP2a; O75604; USP2 core, Ub-CHOP2 coupled fluorogenic reporter, 485/531; Potency, µM (doses to about 38.3 µM), for the others: at the highest dose activity change, negative = inhibition, hits mostly inhibitors; 330,000 tested, 0.01% active;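 further: potency means the concentration at half of the fitted maximal effect; plate controls were DMSO wells for no effect and full inhibition by NEM control for full effect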
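USP2 core (10nM final) preincubated 30min RT with compound in 20mM Tris-HCl pH 8.0, 2mM CaCl2, 2mM beta-mercaptoethanol, 0.05% CHAPS; 25nM Ub-CHOP2 plus 25nM reporter substrate added, fluorescence (Ex485/Em531) read after 60min.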
GALK inh: blocks human galactokinase activity. P51570. Purified GALK, Kinase-Glo residual ATP luminescence. Potency, µM (highest dose often 57.5 µM), for inactives: top-dose activity change, negative = inhibition, most hits filed as inhibitors. 270,000 tested, 0.007% active. AID 1868; further: potency means the concentration at half of the fitted maximal effect; on the % scale 0 is the no-effect control and ±100 the full control effect
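The enzyme phosphorylates galactose (100 uM) using ATP (35 uM); inhibition is detected as higher residual ATP, quantified by bioluminescence after 1 h reaction at room temperature, pH 8.0.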
KCNH2 3.1 block: blocks the human KCNH2 3.1 channel isoform | U2OS KCNH2 3.1, thallium flux FluxOr; stronger effect = lower value | activity change, % (tested at about 1.8 µM) | 340,000 tested, 0.95% active;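 active means maximum activity change below -70%; inconclusive means maximum activity change from -70% to -50%; inactive means maximum activity change above -50%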;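 further: thallium influx rate constant from kinetic fluorescence after stimulation buffer; on the % scale 0 is the no-effect control and ±100 the full control effect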
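Thallium flux via FluxOr fluorescence (Red40 quencher, 45 min loading) in U2OS cells virally expressing the KCNH2 3.1 isoform (1.77 x 10^8 /mL virus, overnight at 37 C). Rate constants from 2-min kinetic reads post-stimulation, normalised to positive and negative controls.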
TRPV1 agonist: agonists of human vanilloid receptor 1 (TRPV1). Q8NER1. TRPV1-expressing cells, Fluo-8 calcium influx, agonist mode. activation, % at 8.33 µM. 320,000 tested, 0.19% active. AID 540275; in the data active means activation above about 80%; inconclusive means between about 30% and that limit; further: 0% is about no effect
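TRPV1-expressing cells were cultured overnight at 35.5C and loaded with Fluo-8 calcium dye for 40 to 90 min at room temperature. After a 10 s baseline, compound was added and calcium influx was read kinetically for 3 min (ex 480/em 520 nm).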
hERG WT inh: KCNH2 (human, wildtype) channel inhibition; Q12809; U2OS, BacMam KCNH2, thallium flux FluxOr; stronger effect = lower value; activity change, % at 1.84 µM; 340,000 tested, 0.37% active;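 active means maximum activity change below -70%; inconclusive means maximum activity change between -70% and -50%; inactive means maximum activity change above -50%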; further: on the % scale 0 is the no-effect control and ±100 the full control effect
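U2OS cells transduced with wild-type KCNH2 virus are loaded with FluxOr dye for 45 min, and thallium flux is measured in kinetic reads before and after stimulation buffer. Rate constants are normalized to DMSO controls.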
Giardia kill: Giardia lamblia killing; Giardia lamblia trophozoite viability; activity change, % at 7.66 µM, hits read low; 340,000 tested, 0.15% active; in the data active means activity change below about -80%; inconclusive means between about -30% and that limit;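 further: parasites exposed to compound for two days anaerobically before the ATP read; on the % scale 0 is the no-effect control and ±100 the full control effect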
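Each well holds 100 Giardia trophozoites and compound. After two days (48 hrs) at 37 deg C in anaerobic conditions, ATP is quantified by luminescence.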
Coupling enz: coupling enzyme interference in Giardia aldolase counter-screen. coupling enzyme system counterscreen, AmpLite Red fluorescence. activity change, negative = inhibition, % at 58.2 µM, hits read low. 290,000 tested, 0.67% active. AID 2472; in the data active means activity change below about -30%; further: on the % scale 0 is the no-effect control and ±100 the full control effect
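Activity here indicates interference with the coupling reaction, not aldolase inhibition. Compounds at 57.5 uM final met coupling enzymes for 10 min at RT; substrate and AmpLite Red detection followed, with a 525/598 nm fluorescence read after 20 min.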
Active calls of the source: *; u = inconclusive; x = not tested or not shown; [ ] = another dose, or the depositor's remark. Unless noted, the call rests on the fitted dose curve; in most records, active means well fitted curve in the direction sought with a large enough effect; inconclusive means small, poorly fitted or top-dose-only effect, or another doubt; inactive means no such curve, though single readings can be large; an effect the other way counts as inactive or inconclusive. A portion of the library, so the mix of outcomes need not match the whole.

no.	smiles	PKM2 act	B2AR arrestin	USP2a block	GALK inh	KCNH2 3.1 block
1	CC1CCCCC1n1c(=S)[nH]c2ccccc2c1=O (stereo not given)	9%	-0.8%	-13%	-1%	-4
2	Cc1cccc(NC(=O)c2ccc3c(c2)CCN3S(C)(=O)=O)c1C	-8%	0.2%	1%	1%	0
3	COc1ccc(/C=N/NC(=O)c2ccncc2)c(OC)c1	x	-0.6%	2%	x	-5
4	C=CCNC(=O)Cn1nnc(-c2ccc(-c3ccc(OC)cc3)cc2)n1	-1%	-0.2%	-1%	2%	3
5	COc1cc2c(cc1OC)-c1cc(Nc3ccc(C(=O)O)cc3)nc(=O)n1CC2	x	-1.5%	-2%	-3%	-93*
6	Clc1ccccc1-c1cc(COc2ccc3ccccc3c2)no1	-12%	0.9%	0%	3%	-11
7	OCCNCc1c(OCc2ccc(Cl)cc2)ccc2ccccc12	x	0.2%	5%	-7%	-105*
8	Cc1ccc(/C=N/NC(=O)C(=O)N/N=C/c2ccc(C)o2)o1	-3%	0.4%	0%	3%	10
9	CC(C)CCOc1ccc(CO[C@@H]2[C@H]3OC(C)(C)O[C@H]3O[C@@H]2C(O)CO)cc1 (stereo not given in full)	x	-0.6%	-5%	-3%	-5
10	Cc1cc(C)cc(NC(=O)Cn2nnc(C(=O)NCc3ccc(F)cc3)c2N)c1	x	0.3%	1%	10%	3
11	COc1ccc(-c2c(C)nn3c(NC4CCCC4)cc(C)nc23)cc1OC	x	9.9%	-8%	2%	1
12	Cc1cc2cc(C(c3nnnn3Cc3ccco3)N3CCc4ccccc43)c(=O)[nH]c2cc1C (stereo not given)	29%	-0.3%	-10%	-1%	-12

no.	TRPV1 agonist	hERG WT inh	Giardia kill	Coupling enz
1	1	-26	-3	-6
2	u	5	20	0
3	6	3	2	2
4	0	3	u	0
5	-5	7	-3	3
6	2	-6	-27	-1
7	-9	-128*	9	-2
8	-1	-10	-7	1
9	1	2	-3	1
10	-3	-15	16	-1
11	-3	-4	2	-6
12	-2	-10	-12	-13

Continuation.
no.	smiles	PKM2 act	B2AR arrestin	USP2a block	GALK inh	KCNH2 3.1 block
13	CC1CCN(S(=O)(=O)c2ccc(C(=O)Nc3ccccc3-c3nc4ccccc4[nH]3)cc2)CC1	-3%	-0.6%	3%	4%	-6
14	COc1ccc(NC(=O)C(C)N2CCN(C)CC2)cc1 (stereo not given)	x	0.0%	-7%	5%	-6
15	CCn1c(SCCOc2ccc(OC)cc2)nnc1C(CO)NC(=O)c1ccc(OC)cc1 (stereo not given)	-6%	-0.4%	0%	-2%	3
16	CCOc1ccc(-c2nnc3n2N=C(c2ccc(OC)cc2)CS3)cc1	-8%	0.1%	-8%	1%	-6
17	COc1cccc2c1C(=O)c1c(O)c3c(c(O)c1C2=O)C[C@@](O)(C(=O)CO)C[C@@H]3O[C@H]1C[C@H](N)[C@@H](O)[C@H](C)O1	x	x	x	x	5
18	CC(C)NC(=O)c1ccc(COc2ccc(C(C)(C)C)cc2)o1	x	-0.6%	1%	2%	-3
19	CCCn1c(=O)c(C(=O)Nc2ccccc2C(=O)OC)c(O)c2ccccc21	-4%	0.3%	3%	2%	9
20	O=C(N/N=C/c1cccnc1)c1ccc2c(c1)OCO2	x	-1.2%	6%	5%	-7
21	CN(C)CCCNC(=O)c1cc(C(=O)c2ccccc2)c[nH]1	x	0.6%	1%	9%	2
22	COC(=O)Cc1c(C)c2ccc(OCC(=O)c3ccc(OC)c(OC)c3)cc2oc1=O	x	0.1%	4%	x	-15
23	COc1ccccc1CNC(=O)CSc1nc(N)c(C#N)c(-c2cccs2)c1C#N	4%	0.6%	0%	x	2
24	O=c1c(Cc2ccc(F)cc2)c(O)ccn1Cc1ccc(Cl)cc1Cl	u	-1.0%	0%	1%	7

no.	TRPV1 agonist	hERG WT inh	Giardia kill	Coupling enz
13	5	-23	-11	-1
14	1	4	-16	-2
15	3	3	9	-1
16	u	0	-9	3
17	x	2	-22	x
18	-11	1	-15	-2
19	-1	-8	-18	-9
20	90*	5	-2	0
21	0	0	-17	5
22	-2	-10	-13	0
23	-1	0	u	-4
24	13	-3	-2	0

(list continues)
no.	smiles	PKM2 act	B2AR arrestin	USP2a block	GALK inh	KCNH2 3.1 block
25	CS(=O)(=O)c1ccc2nc(NC(=O)Nc3ccccc3F)sc2c1	-3%	0.1%	-2%	2%	10
26	Cc1ccc(S(=O)(=O)N2CCN(C(=O)CN3CCc4ccccc4C3)CC2)cc1	u	0.0%	-1%	0%	-8
27	CCOC(=O)N1CCN(C(=O)CSc2nc3c(c(=O)n2-c2ccccc2OC)SCC3)CC1	-3%	-4.0%	2%	-2%	-7
28	O=C(Nc1cccnc1)c1sc(Nc2ccccc2)nc1-c1ccccc1	16%	-1.2%	-2%	1%	-8
29	CCCCCCCC(=O)N1CCN(c2cc3c(cc2F)c(=O)c(C(=O)O)cn3CC)CC1	x	-0.8%	2%	x	-9
30	O=C(NC1CCN(C(=O)Nc2cccc(Cl)c2)CC1)C1CCCCC1	x	0.7%	2%	2%	-73*
31	S=C(Nc1ccc(OCc2ccccc2)cc1)Nc1cccc(Cl)c1Cl	-2%	-0.6%	0%	-4%	6
32	O=C(COc1ccccc1Cl)Nc1ccc2c(c1)OCCO2	1%	-0.8%	1%	-3%	10
33	O=C(/C=C/c1ccccc1)NC(NC(=S)Nc1cccc(O)c1)C(Cl)(Cl)Cl (stereo not given)	-3%	0.2%	-1%	-3%	-19
34	Cc1cccc(NC(=O)CN2C(=O)N/C(=C/c3ccc(C)o3)C2=O)c1	u	-0.4%	3%	-1%	-3
35	COc1ccccc1Nc1nnc(SCC(=O)NC(=O)Nc2ccc3c(c2)OCCO3)s1	-4%	-0.5%	0%	0%	-26
36	Fc1ccc(N/N=C/C=C/c2ccccc2)c(F)c1	2%	-0.1%	1%	0%	-23

no.	TRPV1 agonist	hERG WT inh	Giardia kill	Coupling enz
25	5	3	-20	4
26	7	-4	11	-4
27	-1	-4	-4	0
28	16	6	1	-6
29	-4	1	-22	-2
30	11	-9	6	-1
31	5	1	-4	2
32	u	-1	-6	-1
33	29	2	-19	2
34	-4	3	-24	-2
35	-15	12	8	-1
36	2	-23	6	0

(further entries)
no.	smiles	PKM2 act	B2AR arrestin	USP2a block	GALK inh	KCNH2 3.1 block
37	COc1ccccc1NC(=S)NC(=O)c1ccc(-c2ccc(Cl)cc2)o1	1%	-0.7%	2%	x	-6
38	CCCc1cc(-c2[nH]ncc2-c2ccc3c(c2)OCCCO3)c(O)cc1O	-5%	0.3%	-11%	0%	-18
39	O=C(/C=C\c1ccco1)Nc1nc(-c2ccc3ccccc3c2)cs1	-3%	-0.3%	-1%	0%	-22
40	CC1CCN(C(=O)CCCNC(=O)Cn2cnc3sc4c(c3c2=O)CCCC4)CC1	2%	2.6%	4%	0%	-2
41	N#Cc1ccc(OCC(O)CN2CCN(C(c3ccccc3)c3ccccc3)CC2)cc1 (stereo not given)	3%	-0.1%	-1%	-4%	-100*
42	O=C1CC(c2cccc(F)c2)c2c(c3ccccc3[nH]c2=O)O1 (stereo not given)	x	-0.8%	0%	1%	-1
43	Cc1ccc(C)c(Cn2c(=O)n(-c3ccc(CC(=O)NCc4ccco4)cc3)c(=O)c3sccc32)c1	-17%	-0.2%	0%	1%	-6
44	COc1cc(C(C)=O)ccc1OCC(=O)N1CCc2ccccc2C1	1%	-1.0%	3%	14%	6
45	COc1ccc(Nc2nc(Nc3ccc(OC)cc3)nc(SC3=NCCS3)n2)cc1	-3%	0.1%	3%	0%	-9
46	CCCCN(CCCNC(=O)C1CCN(S(=O)(=O)CC)CC1)c1ccccc1	7%	0.3%	0%	1%	1
47	CSc1ccc(S(=O)(=O)NCCOc2ccccc2C)cc1	3%	-0.3%	3%	1%	2
48	Cc1ccccc1NC(=S)NC(=O)c1cc(-c2ccccc2)nc2ccccc12	0%	-0.3%	1%	2%	0

no.	TRPV1 agonist	hERG WT inh	Giardia kill	Coupling enz
37	0	-12	12	-3
38	-2	0	-10	2
39	4	-18	40[activator]	-4
40	-4	8	14	2
41	7	-84*	5	-1
42	-2	1	3	11
43	-2	-8	-2	4
44	4	0	23	2
45	27	-2	-16	-3
46	0	9	-9	-9
47	16	-5	-11	-4
48	0	-20	13	-1

5 entries from above, sorted by length of the SMILES, highest first:
no.	smiles	PKM2 act	B2AR arrestin	USP2a block	GALK inh	KCNH2 3.1 block
43	Cc1ccc(C)c(Cn2c(=O)n(-c3ccc(CC(=O)NCc4ccco4)cc3)c(=O)c3sccc32)c1	-17%	-0.2%	0%	1%	-6
41	N#Cc1ccc(OCC(O)CN2CCN(C(c3ccccc3)c3ccccc3)CC2)cc1 (stereo not given)	3%	-0.1%	-1%	-4%	-100*
45	COc1ccc(Nc2nc(Nc3ccc(OC)cc3)nc(SC3=NCCS3)n2)cc1	-3%	0.1%	3%	0%	-9
39	O=C(/C=C\c1ccco1)Nc1nc(-c2ccc3ccccc3c2)cs1	-3%	-0.3%	-1%	0%	-22
44	COc1cc(C(C)=O)ccc1OCC(=O)N1CCc2ccccc2C1	1%	-1.0%	3%	14%	6

no.	TRPV1 agonist	hERG WT inh	Giardia kill	Coupling enz
43	-2	-8	-2	4
41	7	-84*	5	-1
45	27	-2	-16	-3
39	4	-18	40[activator]	-4
44	4	0	23	2

The listing continues.
no.	smiles	PKM2 act	B2AR arrestin	USP2a block	GALK inh	KCNH2 3.1 block
49	CCOC(=O)Cn1cnc2c(cnn2-c2ccc(Cl)cc2)c1=O	5%	-0.2%	-2%	0%	-14
50	Cc1cccc(NC(=O)CN2C(=O)N/C(=C/c3ccc(C)s3)C2=O)c1	20%	1.7%	23%	-4%	0
51	Cc1ccc(C(=O)CNc2ccc(Br)cc2)cc1	0%	-0.3%	0%	2%	-10
52	COc1ccc(C(=O)COC(=O)c2nn(C)cc2Cl)cc1	0%	0.4%	2%	14%	-5
53	N#Cc1cn(-c2ccccc2)nc1-c1ccc2c(c1)OCCO2	-3%	-0.5%	-1%	0%	15

no.	TRPV1 agonist	hERG WT inh	Giardia kill	Coupling enz
49	1	5	-11	1
50	9	22	14	5
51	15	0	0	3
52	1	-9	3	1
53	u	4	7	3
